Source: PubChem (several laboratories)
GALR2 ag = agonists of human galanin receptor 2 (GALR2). hit rate 0.48% among 140,000. O43603. AID 803. activation, %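 (tested at 5 µM)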. GALR2-expressing cells, agonist activation read-out;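 active = above mean plus 3 SD of all compounds, about 5% in these data, not always enough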;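 note: 0% = vehicle buffer wells and 100% = reference agonist at full effect; tested in CHO reporter cells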
Insulin prom inh = TRM-6 insulin promoter activity inhibition; hit rate 0.9% among 130,000; inhibition, % at 2 µM; TRM-6 cells (human fetal islet line), insulin promoter-eGFP reporter, imaging; reporter expression induced with tamoxifen;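 active = inhibition above the mean plus 3 SD, with well images judged a real hit on visual review, cut at about 60% in these data, passing the limit was not always enough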
HSV augment = increases HSV replication in cells. HSV replication augmentation in cells, fold increase. maximum fold increase. hit rate 0.005% among 220,000;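 active = peak rise of 1.5-fold or more in the series; tested in PC3 cells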;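 note: first round at 10 µM; read as green reporter fluorescence; hits show the peak of a series up to 25 µM; 1 = signal of infected wells without compound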
PKD1 kinase inh = PKD1 (human) kinase inhibition. Q15139. hit rate 0.056% among 200,000. inhibition, %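 (about 10 µM by stock and volumes)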. PKD1 kinase fluorescence polarization assay;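 active = inhibition of 50% or more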;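 note: controls were vehicle for no effect and a reference inhibitor for full effect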
Target sequence (Q15139 whole entry, looked up): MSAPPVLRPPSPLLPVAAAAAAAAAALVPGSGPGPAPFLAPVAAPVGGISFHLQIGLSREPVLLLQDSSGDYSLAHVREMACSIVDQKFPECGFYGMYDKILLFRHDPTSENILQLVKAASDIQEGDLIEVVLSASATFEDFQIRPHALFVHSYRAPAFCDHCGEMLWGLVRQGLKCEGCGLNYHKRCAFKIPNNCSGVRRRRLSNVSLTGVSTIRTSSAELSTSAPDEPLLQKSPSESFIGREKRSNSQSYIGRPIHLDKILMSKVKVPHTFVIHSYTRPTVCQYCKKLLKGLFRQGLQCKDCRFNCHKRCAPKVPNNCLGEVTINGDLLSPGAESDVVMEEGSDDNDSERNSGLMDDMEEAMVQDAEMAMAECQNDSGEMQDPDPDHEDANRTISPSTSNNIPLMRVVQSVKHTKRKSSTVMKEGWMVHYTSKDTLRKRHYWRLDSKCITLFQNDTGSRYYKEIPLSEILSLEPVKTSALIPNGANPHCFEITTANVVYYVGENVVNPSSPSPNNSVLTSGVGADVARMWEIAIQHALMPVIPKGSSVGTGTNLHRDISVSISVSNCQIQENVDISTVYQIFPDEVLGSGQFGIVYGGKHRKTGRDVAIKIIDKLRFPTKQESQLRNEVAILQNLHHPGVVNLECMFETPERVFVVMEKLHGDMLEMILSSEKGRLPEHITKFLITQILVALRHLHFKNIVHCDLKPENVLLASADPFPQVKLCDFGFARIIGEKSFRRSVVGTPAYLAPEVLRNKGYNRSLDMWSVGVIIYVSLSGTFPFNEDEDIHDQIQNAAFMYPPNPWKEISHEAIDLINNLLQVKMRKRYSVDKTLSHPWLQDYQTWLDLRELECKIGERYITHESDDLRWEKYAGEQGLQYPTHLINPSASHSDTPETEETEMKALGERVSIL
RGS16-Gao = RGS16-Galphao interaction regulator (human) | binding response (% of control), % at 10 µM | hit rate 0.38% among 220,000 | O15492+P09471 | bead-based flow cytometry RGS16-Galphao binding, fluorescence; actives lie on both sides;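 active = below 25% or above 175%, edge rows of some plates excepted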;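 note: Galphao activated by GDP with aluminum fluoride before binding; 100% = wells without compound and 0% = beads without RGS; some results beyond the cut were filed as inactive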
Insulin prom inh cell count = second read-out of Insulin prom inh, no call of its own (marks repeat the call); normalized cell count, %; measured here: cell count, toxicity; reference of the scale not given here;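 cells exposed to compound for 48 h; stained nuclei by imaging scaled within each plate; lower means fewer cells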
HSV augment primary fold = recorded beside HSV augment, whose call it bears; fold increase; compound at 10 µM; measured here: primary screen fold increase 10 uM; tested in PC3 cells;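 GFP signal in the first replicate; 1 = infected wells without compound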
Starred values were filed as active, the others as inactive; i = inactive; x = not tested or not shown.

Letters: A = GALR2 ag; B = Insulin prom inh; C = Insulin prom inh cell count; D = HSV augment; E = HSV augment primary fold; F = PKD1 kinase inh; G = RGS16-Gao
O=C(NC1CCCCCC1)C1c2ccccc2C(=O)N1CCCN1CCOCC1 (centres undefined)
  A: -3.2 | B: -35.5 | C: 97.9 | D: i | E: 0.76 | F: 1.1 | G: 92.5

O=C(Nc1cnc2ccccc2c1)c1cccc(-n2cnnn2)c1
  A: -1.4 | B: -19.4 | C: 79.0 | D: i | E: 0.89 | F: -2.4 | G: 97.3

Cc1ccc(-c2csc(NC(=O)Cc3cccs3)n2)cc1C
  A: -1.0 | B: 17.1 | C: 105.6 | D: i | E: 0.94 | F: 5.6 | G: 96.0

Cc1ccc(-c2csc3ncn(Cc4ccc(C(=O)O)cc4)c(=O)c23)cc1C
  A: x | B: x | C: x | D: i | E: 1.04 | F: -2.8 | G: 101.7

CCOC(=O)c1cccc(NC(=O)CSc2nc3ccccc3c(=O)n2CC)c1
  A: -4.4 | B: -17.1 | C: 141.1 | D: i | E: 0.88 | F: -2.0 | G: 101.4

COc1ccc(C(=O)NCC(=O)NCC(=O)OCc2ccc(Br)cc2)cc1
  A: x | B: x | C: x | D: i | E: 0.8 | F: -4.9 | G: 102.0

COCCn1c(C)cc(C(=O)COC(=O)c2cccc(O)c2)c1C
  A: x | B: x | C: x | D: i | E: 0.83 | F: x | G: 95.4

COC(=O)COc1ccc(S(=O)(=O)NCc2ccncc2)cc1
  A: -0.6 | B: 37.5 | C: 109.4 | D: x | E: x | F: -6.3 | G: 99.0

Fc1ccc(-c2nnc(CSc3nnc4ccccn34)o2)cc1
  A: -1.2 | B: 11.1 | C: 110.8 | D: i | E: 1.04 | F: -5.3 | G: 122.1

COc1ccc(-n2nc(C(=O)O)c3ccccc3c2=O)c(OC)c1
  A: -1.0 | B: 12.9 | C: 86.7 | D: i | E: 0.96 | F: -16.2 | G: 100.4

CNC(=O)CSc1cn(CC(=O)N(C(C)C)C(C)C)c2ccccc12
  A: x | B: x | C: x | D: i | E: 0.94 | F: -10.5 | G: 108.4

CC(C)n1cc(NC(=O)C2CC(c3cccc(Br)c3)=NO2)cn1 (centres undefined)
  A: -2.2 | B: 28.6 | C: 113.9 | D: i | E: 1.03 | F: 3.5 | G: 96.4

Cc1ccc(C(=O)OCC(=O)NCc2ccco2)cc1
  A: -1.0 | B: -20.0 | C: 150.6 | D: i | E: 0.91 | F: -2.3 | G: 95.8

O=C(CCCSc1nc2ccccc2[nH]1)Nc1ccccc1
  A: -0.2 | B: x | C: x | D: i | E: 1.01 | F: -8.8 | G: 89.4

CC(C)c1ccc(SCc2noc(C(=O)NCC3CCCO3)c2C(=O)O)cc1 (centres undefined)
  A: -0.8 | B: 37.8 | C: 93.5 | D: i | E: 0.9 | F: -13.2 | G: 97.9

CN(C)/C=C(/C(=O)c1ccccc1Cl)S(C)(=O)=O
  A: x | B: 75.0* | C: 84.2* | D: i | E: 1.06 | F: 10.2 | G: 97.5

COc1ccc(C2CC(C)(c3ccc(OC)cc3)Nc3ccccc3N2)cc1 (centres undefined)
  A: x | B: x | C: x | D: i | E: 1.23 | F: x | G: 114.4

c1ccc(-c2nn3c(-c4ccccc4)nnc3s2)cc1
  A: 0.3 | B: 15.4 | C: 89.9 | D: i | E: 0.82 | F: -13.7 | G: 106.3

Cn1c(SC2CCCCC2=O)nnc1-c1ccccc1F (centres undefined)
  A: x | B: -47.1 | C: 98.5 | D: i | E: 0.87 | F: -3.5 | G: 105.0

O=C(CCC1CCCN(C(=O)c2ccoc2)C1)NCc1ccccc1F (centres undefined)
  A: x | B: x | C: x | D: i | E: 0.94 | F: -0.2 | G: 103.1

Cc1cnn(C(=O)c2oc3ccccc3c2C)c1
  A: -1.3 | B: -347.6 | C: 48.6 | D: i | E: 1.06 | F: -3.7 | G: 103.0

O=C(Nc1cccc(Cl)c1)N(Cc1nc2ccccc2c(=O)[nH]1)Cc1cccs1
  A: -0.1 | B: -48.3 | C: 63.1 | D: i | E: 0.87 | F: -3.6 | G: 84.3

COc1ccc(NC(=O)c2sc3nc(Cc4ccccc4)cc(C(F)(F)F)c3c2N)cc1OC
  A: -1.4 | B: -4.6 | C: 63.2 | D: i | E: 1.29 | F: -4.1 | G: 138.1

COc1ccc(OCC(=O)Nc2nnc(C)s2)cc1
  A: -0.7 | B: -10.8 | C: 77.3 | D: i | E: 0.94 | F: -6.4 | G: 101.5

Cc1cc(Nc2ccc(O)cc2)n2c(nc3ccccc32)c1C#N
  A: x | B: x | C: x | D: i | E: 0.89 | F: -5.4 | G: 99.5

O=C(NCc1ccc2c(c1)OCO2)C1CCCN(S(=O)(=O)c2cccs2)C1 (centres undefined)
  A: -1.7 | B: 30.0 | C: 104.8 | D: i | E: 0.91 | F: 3.4 | G: 103.2

Sorted by count of non-hydrogen atoms (lowest first): some entries from above.
Letters: A = GALR2 ag; B = Insulin prom inh; C = Insulin prom inh cell count; D = HSV augment; E = HSV augment primary fold; F = PKD1 kinase inh; G = RGS16-Gao
Cc1ccc(C(=O)OCC(=O)NCc2ccco2)cc1
  A: -1.0 | B: -20.0 | C: 150.6 | D: i | E: 0.91 | F: -2.3 | G: 95.8

COC(=O)COc1ccc(S(=O)(=O)NCc2ccncc2)cc1
  A: -0.6 | B: 37.5 | C: 109.4 | D: x | E: x | F: -6.3 | G: 99.0

Cc1cc(Nc2ccc(O)cc2)n2c(nc3ccccc32)c1C#N
  A: x | B: x | C: x | D: i | E: 0.89 | F: -5.4 | G: 99.5

CNC(=O)CSc1cn(CC(=O)N(C(C)C)C(C)C)c2ccccc12
  A: x | B: x | C: x | D: i | E: 0.94 | F: -10.5 | G: 108.4

COc1ccc(C2CC(C)(c3ccc(OC)cc3)Nc3ccccc3N2)cc1 (centres undefined)
  A: x | B: x | C: x | D: i | E: 1.23 | F: x | G: 114.4

Two records picked at random from those above:
Letters: A = GALR2 ag; B = Insulin prom inh; C = Insulin prom inh cell count; D = HSV augment; E = HSV augment primary fold; F = PKD1 kinase inh; G = RGS16-Gao
COc1ccc(-n2nc(C(=O)O)c3ccccc3c2=O)c(OC)c1
  A: -1.0 | B: 12.9 | C: 86.7 | D: i | E: 0.96 | F: -16.2 | G: 100.4

CC(C)n1cc(NC(=O)C2CC(c3cccc(Br)c3)=NO2)cn1 (centres undefined)
  A: -2.2 | B: 28.6 | C: 113.9 | D: i | E: 1.03 | F: 3.5 | G: 96.4
